Bioassay records deposited in PubChem BioAssay by National Center for Advancing Translational Sciences (NCATS).
TRPML1 blocker: human mucolipin-1 channel inhibition; TRPML1-inducible cells, Ca2+ dye fluorescence, FDSS; active compounds read low; inhibition of EC80 agonist-evoked calcium signal; activity change, negative = inhibition, % (concentration not given with the values); 0.02% of 390,000 active; AID 624415; in the data active means activity change below about -50%; inconclusive means about -30% to -50%; inactive means above about -30%;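 note: stimulus is agonist 54-4 at its EC80 concentration; % is set by controls: 0 for no effect and ±100 for the full control effect; the text of the record puts the active cut at -80%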
Target sequence (Q9GZU1 whole entry, looked up): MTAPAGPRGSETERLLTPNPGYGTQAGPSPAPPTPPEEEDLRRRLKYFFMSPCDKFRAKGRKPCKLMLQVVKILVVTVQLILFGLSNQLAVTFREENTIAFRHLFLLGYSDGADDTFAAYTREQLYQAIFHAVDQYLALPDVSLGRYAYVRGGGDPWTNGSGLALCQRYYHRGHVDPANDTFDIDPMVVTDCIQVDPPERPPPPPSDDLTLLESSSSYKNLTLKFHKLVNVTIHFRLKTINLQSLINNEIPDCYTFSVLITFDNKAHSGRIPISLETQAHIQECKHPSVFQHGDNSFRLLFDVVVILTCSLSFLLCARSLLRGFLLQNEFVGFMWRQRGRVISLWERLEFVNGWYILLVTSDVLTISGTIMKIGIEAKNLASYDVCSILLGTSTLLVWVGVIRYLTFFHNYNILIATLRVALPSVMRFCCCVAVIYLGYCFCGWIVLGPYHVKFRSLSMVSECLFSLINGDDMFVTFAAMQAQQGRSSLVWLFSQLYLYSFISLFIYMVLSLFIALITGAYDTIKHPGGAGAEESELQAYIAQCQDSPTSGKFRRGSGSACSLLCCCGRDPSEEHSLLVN
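Tet-induced TRPML1-DL cells loaded with Ca8 no-wash calcium dye were read kinetically on FDSS. Compound addition was followed by EC80 agonist 54-4 (4 uM final); inhibition was read over 110 s.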
Sfp PPTase inh: Sfp phosphopantetheinyl transferase inhibition; Biochemical Sfp PPTase activity, qHTS; Potency, µM, inactives show max response, negative = inhibition, actives largely listed as inhibitors; 3.5% of 310,000 active; active = well fitted inhibition curve with a large enough effect; inconclusive = small, poorly fitted or top-dose-only effect, or another doubt; inactive = no such curve, though single readings can be large or run the other way;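 note: the enzyme is Sfp with the accession as filed and its product quenches rhodamine fluorescence; potency is the fitted concentration of half-maximal effect; 0% = enzyme reaction without inhibitor and -100% = no enzyme wells; top concentration of the series not given in the record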
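Buffer: 50 mM Hepes-Na pH 7.6, 10 mM MgCl2, 0.01% Nonidet P-40, 0.01% BSA. Enzyme 15 nM, pre-exposed to compound 15 min; substrates then added and fluorescence change tracked over 30 min.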
TRPML1 agonist: human mucolipin-1 channel agonism; Q9GZU1; TRPML1-expressing cells, Ca2+ dye fluorescence, FDSS; host cell line not named in the record; reference of the full effect not given here; activation, % (no concentration beside the values); 0.12% of 410,000 active; in the data active = activation above about 50%; inconclusive = about 30% to 50%; inactive = below about 30%; note: 0% is about no effect; the text of the record puts the active cut at 80%
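Agonist activity was taken from a 110 s kinetic Ca2+ dye read on the FDSS after pinning compounds onto TRPML1-DL cells. The cells were seeded at 1,500/well with Tet inducer, incubated about 16 h, then dye-loaded at room temperature.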
TRPV1 potentiator: human TRPV1 potentiation. 0.02% of 320,000 active. potentiation, % at 8.33 µM. TRPV1-expressing cells, Fluo-8 calcium influx, capsaicin EC20 potentiation; host cell line not named in the record; control for the full effect not named in the record. Q8NER1; active means potentiation above 80%; inconclusive means 30% to 80%; inactive means below 30%; note: 0% is about no effect
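Fluo-8 calcium influx in TRPV1-expressing cells, kinetic read (ex 480/em 520 nm). Compound added and read 3 min for agonist activity, followed by capsaicin at EC20 final and 2 min further read for enhancement.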
ClpP mod: qHTS Assay for Activators of ClpP | Potency, µM (series often up to 57.5 µM), for the others: top-dose activity change, negative = active | 1.9% of 340,000 active | ATP-dependent Clp protease proteolytic subunit (Bacillus subtilis (strain 168)), P80244 | AID 651965, 2013 | purified B. subtilis ClpP, FRET peptide cleavage, 20 min; active = well fitted falling curve with a large enough effect; inconclusive = small, poorly fitted or top-dose-only effect; inactive = no such curve, though single readings can be large or run the other way; note: potency is the fitted concentration of half-maximal effect; the source files actives as falling curves though it sought activators and does not explain the sign; nearly all actives have a fitted effect of over 65% in size; many hits overshoot -100%
Target sequence (P80244 whole entry, looked up): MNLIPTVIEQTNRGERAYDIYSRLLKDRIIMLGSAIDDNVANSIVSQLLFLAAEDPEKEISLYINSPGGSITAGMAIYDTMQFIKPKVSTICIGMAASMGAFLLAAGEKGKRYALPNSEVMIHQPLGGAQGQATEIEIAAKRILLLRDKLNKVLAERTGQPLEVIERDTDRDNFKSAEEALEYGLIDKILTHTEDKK
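Buffer: 100 mM Tris/HCl pH8, 100 mM KCl, 0.05% low protease BSA, 2.5% glycerol, 0.01% Tween-20. ClpP 10 microg/mL final; 20 min RT; delta FRET normalized to ADEP and DMSO controls.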
Menin MLL FP FL: menin-MLL binding inhibition, fluorescein peptide | 290,000 tested, under 10 active | AID 1766 | Fluorescence polarization, fluorescein-MLL peptide displacement from menin | FP activity change, % at 61.4 µM; inconclusive = falling polarisation curve, or a change in total fluorescence; inactive = total fluorescence flat and polarisation flat or rising; no compound was filed as active; the % refers to the polarisation; negative = inhibition;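 note: % of control where 0% means no effect; inhibitors lower the polarisation; unlabelled MLL peptide was the positive control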
PINK1 expr mod: modulators of PINK1 expression | PINK1 immunofluorescence, high-content cytometry, 24 h | Potency, µM (titrated, usually from 76.6 µM), without a hit: at the top dose activation (PINK1 increase), hits mostly activators | 0.2% of 410,000 active | AID 624263; active = well fitted activation curve with a large enough effect; inconclusive = small, poorly fitted or top-dose-only effect; inactive = flat fitted curve, though single readings scatter; cell line not stated here;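 note: potency is the fitted concentration of half-maximal effect; % of control where 0% means no effect; nearly all actives have a fitted effect of over 65% in size; a mitochondrial uncoupler was the plate control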
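Compound titrations (5 concentrations, 24 h) on a stable cell line; DMSO and CCCP controls. Endpoint: fixed-cell PINK1 immunofluorescence with mitochondrial, cell and nuclear markers, scanned by microplate cytometer.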
Starred values were filed as active, the others as inactive; ? = inconclusive; / = no result given; & = joins results of further samples; [ ] = remark or other dose.

item	structure	TRPML1 blocker	Sfp PPTase inh	TRPML1 agonist	TRPV1 potentiator	ClpP mod	Menin MLL FP FL	PINK1 expr mod
1	O=C(OCCC1Oc2cccnc2NC1=O)c1ccc(F)cc1 (stereo not given)	0	7%	-0.3	-1	/	-2.7	1.7%
2	CC(C)OC(=O)CC(=O)CSc1nc2c(c(-c3cccs3)c1C#N)CCC2	11	-8%	1.8	-9	-0.7%	19	0.9%
3	CCOC(=O)c1c(NC(=O)C(C)NCc2ccco2)sc2c1CCC(C)C2 (stereo not given)	-6	?	0.6	1	?	1.1	3.7%
4	CC1CC=CC2C1C(=O)N(Cc1ccccc1)C2c1ccc(-c2ccc(N(C)C)cc2)cc1F (stereo not given)	76	-19%	1.6	/	/	5.7	/
5	COC(=O)c1sccc1NC(=S)N1CCN(c2cccc(C)c2C)CC1	-1	15%	0.6	-1	1.0%	1.3	9.4%
6	COc1ccc(C(C)=O)cc1CSc1nc(NCc2ccccc2)c2ccccc2n1	20	/	4.4	/	-1.9%	/	1.0%
7	COc1ccc(O[C@H]2C=C[C@@H](c3ccccc3)O[C@@H]2COC(=O)CC/C(C)=N/O[C@@H](C)c2cn([C@H](CO)Cc3ccccc3)nn2)cc1	/	9%	/	5	/	3.0	/
8	CCOc1ccc(CCNC(=O)COC(=O)c2cccc(S(=O)(=O)N(C)C)c2)cc1OCC	-5	/	-0.6	/	-0.1%	/	1.4%
9	O=C(COc1ccc2c(c1)oc(=O)c1ccccc12)N[C@@H](Cc1c[nH]c2ccccc12)C(=O)O	/	6%	/	5	-2.2%	-3.0	0.2%
10	CC(C)(C)CNC(=O)C1(C)CCN1C(=O)C1(c2ccccc2)CC1 (stereo not given)	/	/	-0.7	/	0.7%	/	1.2%
11	CC1CCC(Nc2ncnc3onc(-c4ccc(Cl)cc4)c23)CC1 (stereo not given)	47	/	2.8	/	0.9%	/	7.1%
12	CC1CN(c2nc3ccccc3nc2C(C#N)C(=O)OC2CCCCC2)CC(C)O1 (stereo not given)	15	-7%	-0.9	/	-1.7%	?	8.1%
13	COc1cccc(C(NC(C)=O)c2nc(-c3ccc4c(c3)OCO4)cs2)c1 (stereo not given)	/	/	0.2	/	1.1%	/	6.3%
14	COc1ccc(NC(=O)CN2CCN(S(=O)(=O)c3ccc(Cl)cc3)CC2)cc1Cl	-1	1%	-0.4	4	4.2%	0.8	8.4%
15	NS(=O)(=O)c1ccc(CCNC(=O)C2CCC(Cn3c(=S)[nH]c4ccccc4c3=O)CC2)cc1 (stereo not given)	-13	-2%	1.1	-5	/	-3.4	1.7%
16	Oc1ccc(-c2cc(-c3ccc(O)cc3)nc(-c3ccccc3)n2)cc1	-12	6%	0.1	-4	/	0.3	7.5%
17	O=S(=O)(Nc1ccc(F)cc1)c1ccc(NC(=S)Nc2ccccc2)cc1	4	-3%	-0.2	16	-1.2%	4.1	3.3%
18	CCN(C(=O)C1CCN(c2ncnc3c2nc2n3CCCCC2)CC1)c1cccc(Cl)c1	6	/	1.6	/	-0.8%	/	28%
19	Cc1cc([N+](=O)[O-])nn1CC(=O)NC1CCCCC1	0	9%	1.0	-2	/	4.3	-0.4%
20	COc1ccc(OC)c(-c2csc(NC(=O)c3ccc4c(c3)OCO4)n2)c1	15	3%	-1.3	-23	0.2%	8.0	16%
21	O=C(Nc1cc(Cl)ccc1N1CCOCC1)c1ccncc1	11	/	-0.2	/	-0.2%	/	-1.8%
22	Cn1cc(C(=O)c2ccc(Cl)cc2Cl)cc1C(=O)N/N=C(\N)COc1ccc(Cl)cc1Cl	7	18%	1.8	-12	-1.3%	-1.1	3.0%
23	CCn1cc(C(=O)NCCC(C)C)c(=O)c2cc(F)c(N3CCN(C)CC3)cc21	2	9%	1.7	2	4.2%	4.7	1.6%
24	CC1=C(C)CC(C(=O)Nc2cccc(Cl)c2)C(C(=O)O)C1 (stereo not given)	9	22%	1.0	9	0.5%	0.9	-1.8%
25	COc1cc(/C=C/C(=O)Nc2ccc(OC)c(S(=O)(=O)N3CCOCC3)c2)ccc1OC(F)F	33	/	0.7	/	-0.3%	/	12%
26	Cc1ccc(CN2C(=O)C(F)(F)Oc3ccccc32)cc1	-15	/	-0.6	/	-0.6%	/	0.2%
27	CCCc1ccc(S(=O)(=O)N2CCN(C(C)C(=O)NCc3ccc(OC)cc3)CC2)cc1 (stereo not given)	2	/	2.2	-3	-3.4%	/	-2.0%
28	Cc1ccc2c(c1)c(N=NC(N)=S)c(O)n2Cc1ccccc1	3	-3%	-1.8	-27	25µM*	-2.7	3.3%
29	COc1ccc(OCCSc2nc3nc(C)cc(C)n3n2)cc1	-11	17%	1.8	7	2.1%	-1.6	1.4%
30	Cc1cc(Cl)ccc1OCCCC(=O)OCC(N)=O	-13	?	-1.1	-5	-1.6%	-3.0	-1.5%

Another view of some results above:
(22) Cn1cc(C(=O)c2ccc(Cl)cc2Cl)cc1C(=O)N/N=C(\N)COc1ccc(Cl)cc1Cl
(23) CCn1cc(C(=O)NCCC(C)C)c(=O)c2cc(F)c(N3CCN(C)CC3)cc21

Assay by compound,22,23
TRPML1 blocker,7,2
Sfp PPTase inh,18%,9%
TRPML1 agonist,1.8,1.7
TRPV1 potentiator,-12,2
ClpP mod,-1.3%,4.2%
Menin MLL FP FL,-1.1,4.7
PINK1 expr mod,3.0%,1.6%

(list continues)
item	structure	TRPML1 blocker	Sfp PPTase inh	TRPML1 agonist	TRPV1 potentiator	ClpP mod	Menin MLL FP FL	PINK1 expr mod
31	COc1ccc(C(C(=O)NCc2ccccc2)N(Cc2ccco2)C(=O)c2cnccn2)cc1 (stereo not given)	-5	16%	-0.9	6	/	-2.8	-1.0%
32	Cc1ccc2c(c1)[C@H]1[C@H](CO2)[C@H](c2ccccc2)[C@]2(C)C(=O)NCC(=O)N12	-15	/	-0.1	2	1.2%	/	-0.1%
33	Cc1cc(C)n(-c2nc(C)nc(N)n2)n1	1	-5%	-0.6	-16	1.4%	-0.8	0.2%
34	CCOc1ccc(NC(=O)C2CCC(CNc3c(N4CCCCC4)c(=O)c3=O)CC2)cc1 (stereo not given)	/	-6%	/	4	-0.5%	0.2	3.6%
35	CC(C)c1nc2ccc(C(=O)NCCCN3CCN(c4ccccc4F)CC3)cc2o1	-7	/	0.5	/	-1.2%	/	2.1%
36	COc1cc(-c2noc(C)c2C#CCO)cc(OC)c1OC	17	21%	0.7&-1.2	17	-3.7%&-0.5%	-0.8	0.9%
37	Cc1cc(C)cc(NC(=O)C2CCCN(S(=O)(=O)c3c(C)noc3C)C2)c1 (stereo not given)	-19	12%	2.4	19	-0.7%	-3.5	1.6%
38	Cc1cnc(C(=O)Nc2ccc(OC(F)(F)F)cc2)cn1	-6	10%	0.5	-11	0.4%	-0.1	13%
39	O=S1(=O)CC(N2CC=CC2)CN1Cc1cn(Cc2cccc(Cl)c2)nn1 (stereo not given)	/	/	-0.4	/	1.3%	/	-1.2%
40	NS(=O)(=O)c1ccc(CNC(=O)c2ccc3c(=O)n4c(nc3c2)CCC4)cc1	9	/	-0.4	-8	-13%	/	1.2%
41	CCc1nc(SCc2ccc(F)cc2)n[nH]1	-14	-1%	-0.1	-3	-1.8%	-1.9	4.2%
42	CO[C@H]1/C=C/O[C@@]2(C)Oc3c(C)c(O)c4c(O)c(c(C=NN5CCN(C)CC5)c(O)c4c3C2=O)NC(=O)/C(C)=C\C=C\[C@H](C)[C@H](O)[C@@H](C)[C@@H](O)[C@@H](C)[C@H](OC(C)=O)[C@@H]1C	14	/	0.0	5	-0.5%	/	0.6%
43	Cc1ccc(Cn2cnc3ccccc32)cc1	39	1%	0.0	-7	-1.1%	3.2	-0.1%[38.3 µM]
44	COc1cccc(NC(=O)CSCc2nc3sc(C)c(C)c3c(=O)[nH]2)c1	-1	/	0.0	/	-3.9%	/	-1.9%
45	CC1CCCC(C)N1C(=O)CSc1nnc(COc2ccc(F)cc2)o1 (stereo not given)	4	23%	-1.7	-5	2.0%	2.0	2.8%
46	CCC(C)C(=O)Nc1ccc(OC)cc1[N+](=O)[O-] (stereo not given)	-6	12%	0.8	-6	-4.4%	4.4	0.3%
47	COc1ccc(-n2cc(-c3ccccc3)c3c(NC4CCCCC4)ncnc32)cc1	-2	/	2.2	/	?	/	5.3%
48	CN1C(=O)C2C(c3ccc(N(C)C)cc3)=NN(Cc3ccccc3)C2C1=O (stereo not given)	-4	4%	2.2	5	/	4.1	0.3%
49	O=C(NC1CCCCCC1)c1cccc(S(=O)(=O)N2CCOCC2)c1	-6	/	0.4	/	/	/	-2.5%
50	O=C(NCCCN1CCCC1=O)c1nnc(Cc2c(F)cccc2Cl)o1	0	8%	0.9	?	2.4%	1.0	1.2%
51	O=C(N/N=C/c1ccc(N2CCOCC2)cc1)c1ccccn1	25	?	0.3	-1	0.1%	?	0.7%
52	CC1CCc2c(sc(NC(=O)CSc3ncn[nH]3)c2C#N)C1 (stereo not given)	-13	5%	4.9	16	1.9%	1.6	0.8%
53	O=C(Cn1cnc2ccccc2c1=O)NNC(=O)c1ccccc1	-12	-6%	0.4	?	/	5.0	4.6%
54	C=C(Br)CN1[C@@H](Cc2ccccc2)[C@H](O)[C@@]23C=C[C@@H](C[C@@H]2S1(=O)=O)O3	30	/	0.5	/	-3.7%	/	0.7%
55	CC(C)CSc1n[nH]c(=S)s1	20	35µM*	-0.4	24	/	-2.1	0.8%
56	C=C(C)CNC(=S)N1CCNC(=O)C1CC(=O)OC (stereo not given)	-11	9%	0.5	5	-0.2%	-0.6	-0.1%
57	O=C(NC1CCCCC1)N(CCN1CCCC1)Cc1cc2cc3c(cc2[nH]c1=O)OCCO3	13	-2%	1.5	6	35µM*	6.5	2.4%
